Vaccinia stage = blocks a specific stage of Vaccinia orthopoxvirus infection. activity change (mCherry), % (no concentration beside the values). Vaccinia-infected cells, mCherry/Venus stage reporter fluorescence; hits give low values; some inactives read as strong as hits. actives 0.01% (n = 89,000);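 active = mCherry past -33% and 40 or more points under the early reporter, replicates agreeing; inconclusive = past -33% without that gap or agreement; tested in A549 cells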;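 also: scaled between vehicle wells and reference inhibitor wells; 23 nL library stock went into each well; one replicate is shown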
Vaccinia stage Venus = further read-out of Vaccinia stage, marked with its call; activity change (Venus), %; measured here: Venus reporter, other viral stage;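 negative = less Venus signal; first of two replicates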
An asterisk follows results filed as active; ? = inconclusive; nt = not tested or not shown. Some of the compounds tested, so the mix of outcomes need not match the whole.

SMILES	Vaccinia stage	Vaccinia stage Venus
C[C@@H]1CCCCO[C@H](CN(C)Cc2ccc(Cl)c(Cl)c2)[C@@H](C)CN([C@H](C)CO)C(=O)c2cc(NC(=O)CCCCCC(=O)Nc3ccccc3N)ccc2O1	21.3	11.0
COc1ccc(C#Cc2ccc([C@@H]3[C@@H](CO)N4C(=O)CN(C(=O)c5ccc(F)cc5)C[C@H]34)cc2)cc1	?	nt
Cc1ccc(S(=O)(=O)Nc2ccc3c(c2)C(=O)N([C@@H](C)CO)C[C@@H](C)[C@@H](CN(C)Cc2ccc(C(F)(F)F)cc2)OCCCC[C@@H](C)O3)cc1	?	nt
CC(C)NC(=O)Nc1ccc2c(c1)C(=O)N([C@H](C)CO)C[C@@H](C)[C@H](CN(C)Cc1ccc(C(F)(F)F)cc1)OCCCC[C@@H](C)O2	?	nt
C[C@@H]1CN([C@H](C)CO)S(=O)(=O)c2ccc(C#CC3CC3)cc2O[C@@H]1CN(C)Cc1ccc(F)cc1	-32.9	-35.0
Cc1ccc(S(=O)(=O)Nc2ccc3c(c2)CC(=O)N([C@@H](C)CO)C[C@@H](C)[C@@H](CN(C)S(=O)(=O)c2cn(C)cn2)O3)cc1	8.0	19.6
CC(C)NC(=O)N(C)C[C@H]1OCCCC[C@@H](C)Oc2ccc(NC(=O)Nc3ccc(C(F)(F)F)cc3)cc2C(=O)N([C@@H](C)CO)C[C@H]1C	-25.4	-8.6
OC[C@@H]1[C@@H](c2ccc(-c3cccc(F)c3)cc2)[C@H]2CN(CCC(F)(F)F)CCCCN12	?	nt
C[C@H](CO)N1C[C@H](C)[C@H](CN(C)Cc2ccc(C(=O)O)cc2)Oc2ccc(NC(=O)c3ccncc3)cc2C1=O	12.7	2.6
CO[C@@H]1CN(C)C(=O)c2cc(NC(=O)Nc3c(C)noc3C)ccc2OC[C@H](C)NC[C@H]1C	20.4	11.1
Cc1noc(C)c1NC(=O)N(C)C[C@H]1Oc2ccc(NC(=O)Nc3ccc(F)cc3)cc2CC(=O)N([C@H](C)CO)C[C@H]1C	29.2	26.5
C[C@@H](O)C#Cc1ccc([C@@H]2[C@@H](CO)N3CCCCN(C(=O)c4ccncc4)C[C@H]23)cc1	24.9	10.6
C[C@@H]1CCCCO[C@@H](CN(C)S(=O)(=O)c2ccc(F)cc2)[C@@H](C)CN([C@H](C)CO)C(=O)c2cc(NC(=O)CCCCCC(=O)Nc3ccccc3N)ccc2O1	9.9	6.6
C[C@@H]1CCCCO[C@@H](CN(C)C(=O)Nc2ccc3c(c2)OCO3)[C@@H](C)CN([C@H](C)CO)C(=O)c2cc(NC(=O)Nc3ccccc3)ccc2O1	0.5	2.8
CC(=O)N(C)C[C@@H]1Oc2ncc(C#Cc3ccccc3)cc2C(=O)N([C@H](C)CO)C[C@@H]1C	19.7	11.2
Cc1ccc(S(=O)(=O)Nc2ccc3c(c2)C(=O)N([C@@H](C)CO)C[C@@H](C)[C@H](CN(C)S(=O)(=O)c2ccc(C)cc2)OCCCC[C@@H](C)O3)cc1	?	nt
CCCC(=O)Nc1ccc2c(c1)C(=O)N(C)[C@H]1CC[C@@H](CC(=O)NCCc3ccncc3)O[C@H]1CO2	12.6	8.5
C[C@H](CO)N1C[C@H](C)[C@@H](CN(C)Cc2ccccn2)Oc2cc(C#CCN(C)C)ccc2S1(=O)=O	2.4	2.7
O=C(C1CC1)N1[C@@H](CO)[C@@H](c2ccccc2)C12CN(Cc1cncnc1)C2	-7.5	-1.2
CCCN(C)C[C@@H]1Oc2cc(C#CC3CC3)ccc2S(=O)(=O)N([C@H](C)CO)C[C@@H]1C	-4.8	3.5
CC=Cc1ccc2n(c1=O)C[C@H]1[C@H](CO)[C@@H](C(=O)NCc3ccccc3F)N(CCC)[C@@H]21 (mixture of isomers)	27.5	15.9
C[C@@H]1CN([C@H](C)CO)C(=O)c2cc(NC(=O)Cc3cn(C)c4ccccc34)ccc2O[C@@H]1CN(C)C(=O)Nc1ccc(F)cc1	12.4	0.0
C[C@@H]1CN([C@H](C)CO)C(=O)c2cc(NC(=O)CCCN(C)C)ccc2O[C@@H](C)CCCCO[C@H]1CN(C)S(=O)(=O)c1ccccc1	13.9	12.6
CCN1[C@@H]2c3ccc(-c4ccc(F)cc4)c(=O)n3C[C@@H]2[C@@H](CO)[C@@H]1C(=O)NCCc1cn(C)cn1	-4.6	14.6
COc1ccc(S(=O)(=O)Nc2cccc3c2O[C@H](CN(C)Cc2ccccc2)[C@@H](C)CN([C@H](C)CO)C3=O)cc1	11.8	9.4
C[C@H]1CN([C@@H](C)CO)C(=O)c2cc(NS(=O)(=O)c3ccccc3)ccc2O[C@H]1CN(C)Cc1ccc(C(F)(F)F)cc1	-34.0	-25.4
CC(C)CC#Cc1ccc([C@H]2[C@H](CO)N3CCCCN(C(=O)NC4CCCC4)C[C@@H]23)cc1	?	nt
O=C(Nc1ccccc1)C1=C[C@H](c2csc3ccccc23)C[C@H](OCc2ccc(CO)cc2)O1	-25.2	-12.1
C[C@H](CO)N1C[C@H](C)[C@@H](CN(C)Cc2ccc(F)cc2)Oc2cc(C#CC(C)(C)O)ccc2S1(=O)=O	?	nt
CCNC(=O)[C@@H]1[C@@H](CO)[C@@H]2Cn3c(ccc(-c4ccc(F)cc4)c3=O)[C@H]1N2C(=O)c1ccccn1	12.0	3.7

3 of the compounds above, with each value named.
O=C(Nc1ccccc1)C1=C[C@H](c2csc3ccccc23)C[C@H](OCc2ccc(CO)cc2)O1
  Vaccinia stage = -25.2 | Vaccinia stage Venus = -12.1

CC(C)CC#Cc1ccc([C@H]2[C@H](CO)N3CCCCN(C(=O)NC4CCCC4)C[C@@H]23)cc1
  Vaccinia stage = ? | Vaccinia stage Venus = nt

C[C@H]1CN([C@@H](C)CO)C(=O)c2cc(NS(=O)(=O)c3ccccc3)ccc2O[C@H]1CN(C)Cc1ccc(C(F)(F)F)cc1
  Vaccinia stage = -34.0 | Vaccinia stage Venus = -25.4

The results go on:
SMILES	Vaccinia stage	Vaccinia stage Venus
C/C=C/c1ccc2c(c1)O[C@H](CN(C)Cc1cccc(F)c1)[C@@H](C)CN([C@@H](C)CO)S2(=O)=O	?	nt
C[C@H](CO)N1C[C@H](C)[C@@H](CN(C)Cc2ccccc2)Oc2cc(C#CC3CC3)ccc2S1(=O)=O	?	nt
CCCC(=O)Nc1ccc2c(c1)C(=O)N(C)[C@H]1CC[C@@H](CC(=O)NCc3ccccc3)O[C@@H]1CO2	1.0	0.1
O=C(O)C[C@H]1C=C[C@H](NC(=O)CCN2CCCCC2)[C@@H](CO)O1	2.9	-0.9
Cc1noc(C)c1NC(=O)Nc1cccc2c1O[C@H](CN(C)C(=O)Nc1ccc(C(F)(F)F)cc1)[C@@H](C)CN([C@H](C)CO)C2=O	22.6	24.7
CC(=O)Nc1ccc2c(c1)C(=O)N(C)[C@@H]1CC[C@@H](CC(=O)NCc3ccccc3)O[C@@H]1CO2	4.7	4.2
COc1ccc(S(=O)(=O)N(C)C[C@@H]2OCCCC[C@H](C)Oc3ccc(NC(=O)Nc4ccc(C(F)(F)F)cc4)cc3C(=O)N([C@@H](C)CO)C[C@H]2C)cc1	-6.8	18.3
C[C@@H]1CN([C@H](C)CO)C(=O)Cc2cc(N(C)C)ccc2O[C@@H]1CN(C)Cc1ccccc1	-17.7	-14.7
O=C(C[C@@H]1C[C@H]2c3cc(NC(=O)c4cccnc4)ccc3O[C@H]2[C@H](CO)O1)NCc1ccccc1F	18.9	5.8
CO[C@@H](CN(C)C(=O)C1CCOCC1)[C@@H](C)CN([C@@H](C)CO)S(=O)(=O)c1ccccc1	14.7	11.9
CCN1[C@@H]2c3ccc(-c4cccc(OC)c4)c(=O)n3C[C@H]1[C@H](CO)[C@H]2C(=O)OC	3.7	0.5
COc1ccc(NC(=O)N(C)C[C@@H]2Oc3ccc(NS(C)(=O)=O)cc3C(=O)N([C@@H](C)CO)C[C@@H]2C)cc1	-14.9	-9.3
COC(=O)C[C@@H]1CC[C@H]2NC[C@H](O)COC[C@@H]2O1	8.9	10.7
CCCNC(=O)N1[C@H](CO)[C@H](c2ccccc2)[C@@H]1CNC(=O)C1CCCCC1	10.7	10.6
CN(C)C(=O)c1cccc(-c2ccc3c(c2)[C@@H]2[C@@H](CCN2S(=O)(=O)c2ccccc2)[C@@H](CO)N3)c1	?	nt
C[C@@H]1CN([C@H](C)CO)S(=O)(=O)c2ccc(C#Cc3ccccc3F)cc2O[C@H]1CN(C)C(=O)c1ccc2c(c1)OCO2	?	nt
CO[C@@H]1CN(C)C(=O)c2cc(NC(=O)c3ccc(-c4ccccc4)cc3)ccc2OC[C@@H](C)NC[C@@H]1C	?	nt
COc1cccc(NC(=O)N(C)C[C@H]2Oc3ncc(C4=CCCCC4)cc3C(=O)N([C@@H](C)CO)C[C@@H]2C)c1	-27.5	-17.5
CCCC(=O)N1CC2(CN(C(=O)Nc3cccc(F)c3)C2)c2c(n(C)c3cc(OC)ccc23)[C@H]1CO	-2.6	-7.0
CCCNC(=O)Nc1ccc2c(c1)C(=O)N(C)C[C@@H](OC)[C@H](C)CN(S(C)(=O)=O)[C@@H](C)CO2	10.2	13.0
CO[C@@H]1CN(C)C(=O)c2ccc(NC(C)=O)cc2OC[C@H](C)N(Cc2ccc(F)cc2)C[C@@H]1C	-8.2	-2.5
C[C@@H]1CN([C@@H](C)CO)C(=O)Cc2cc(NC(=O)Cc3cn(C)c4ccccc34)ccc2O[C@@H]1CN(C)Cc1ccc(C(F)(F)F)cc1	?	nt
C[C@H]1CN([C@@H](C)CO)C(=O)c2cc(C#CCN(C)C)cnc2O[C@@H]1CN(C)Cc1ccc2c(c1)OCO2	-6.3	-3.3
Cc1ccc(S(=O)(=O)N(C)C[C@H]2OCCCC[C@H](C)Oc3ccc(NC(=O)Nc4ccccc4)cc3C(=O)N([C@H](C)CO)C[C@H]2C)cc1	-8.7	-1.0
C[C@@H]1CN([C@H](C)CO)C(=O)c2cccc(NC(=O)CCCCCC(=O)Nc3ccccc3N)c2O[C@@H]1CN(C)S(=O)(=O)c1cccs1	13.1	14.6
CCC(=O)N1C[C@@H](O)COC[C@@H]2O[C@H](CC(=O)NCc3ccc(Oc4ccccc4)cc3)CC[C@H]21	1.7	-2.1
C[C@@H]1CN([C@H](C)CO)C(=O)c2cc(NS(=O)(=O)c3cn(C)cn3)ccc2O[C@@H](C)CCCCO[C@@H]1CN(C)S(=O)(=O)c1ccccc1	11.8	10.8
CNC[C@H]1Oc2ccc(NC(=O)NC3CCCCC3)cc2C(=O)N([C@H](C)CO)C[C@@H]1C	14.3	8.5
CN1CCN(C(=O)C[C@H]2CC[C@H]3[C@@H](COC[C@H](O)CN3Cc3ccc4c(c3)OCO4)O2)CC1	7.9	1.4
O=C(Nc1cc(F)ccc1F)N1CCCCN2[C@H](C1)[C@H](c1ccc(-c3ccncc3)cc1)[C@@H]2CO	3.7	-5.4
CN1C(=O)c2cc(NC(=O)C3CCCC3)ccc2OC[C@H]2O[C@@H](CC(=O)NCc3ccccc3F)CC[C@@H]21	24.9	5.4
C[C@H]1CCCCO[C@@H](CN(C)CC2CCCCC2)[C@@H](C)CN([C@@H](C)CO)C(=O)c2cc(NS(=O)(=O)c3cccs3)ccc2O1	-26.0	-16.7
C[C@@H]1CN([C@@H](C)CO)S(=O)(=O)c2ccc(-c3cncnc3)cc2O[C@@H]1CN(C)Cc1ccncc1	2.8	-6.3
C[C@@H]1CN([C@@H](C)CO)C(=O)c2cc(N(C)C)ccc2O[C@H]1CN(C)S(C)(=O)=O	28.6	3.6
C[C@@H]1CN([C@H](C)CO)S(=O)(=O)c2ccc(-c3cccc(C(=O)N(C)C)c3)cc2O[C@@H]1CN(C)C	12.7	2.9
CO[C@@H]1CN(C)C(=O)c2ccc(NC(=O)C3CCC3)cc2OC[C@@H](C)N(S(=O)(=O)c2ccc(Cl)cc2)C[C@H]1C	-33.3	-30.2
Cc1noc(C)c1NC(=O)N(C)C[C@H]1OCCCC[C@@H](C)Oc2ccc(NS(=O)(=O)c3c(C)noc3C)cc2C(=O)N([C@H](C)CO)C[C@@H]1C	6.8	10.6
O=C(Cc1ccccc1)N1CC[C@@H]2[C@H]1c1cc(Br)ccc1N[C@@H]2CO	-4.5	-6.1
C[C@@H]1CN([C@H](C)CO)S(=O)(=O)c2ccc(C#Cc3ccccc3F)cc2O[C@H]1CN(C)C(=O)Cc1cccnc1	?	nt
C[C@H](CO)N1C[C@H](C)[C@H](CN(C)Cc2ccc(C(F)(F)F)cc2)Oc2c(NC(=O)Nc3ccc(F)cc3)cccc2C1=O	?	nt
O=C(CCN1CCCCC1)NCC[C@H]1CC[C@H](NC(=O)Nc2ccc(F)cc2)[C@@H](CO)O1	3.0	5.4
CCCNC(=O)N1CC2(C1)CN(C(=O)c1ccncc1)[C@@H](CO)c1[nH]c3cc(OC)ccc3c12	8.1	-2.5
COc1ccc(C#Cc2ccc([C@@H]3[C@H]4CN(C(=O)c5ccc(F)cc5)CC(=O)N4[C@H]3CO)cc2)cc1	11.1	7.0
CN(C)CC(=O)N[C@@H]1C=C[C@@H](CC(=O)NCCN2CCCCC2)O[C@@H]1CO	13.6	18.0
COc1ccccc1-c1cnc2c(c1)C(=O)N([C@@H](C)CO)C[C@H](C)[C@H](CN(C)CC1CCOCC1)O2	21.7	9.1
C[C@H](CO)N1C[C@H](C)[C@@H](CN(C)C)Oc2ccc(NC(=O)Nc3ccc(C(F)(F)F)cc3)cc2CC1=O	?	nt
Cc1noc(C)c1S(=O)(=O)Nc1ccc2c(c1)C(=O)N([C@H](C)CO)C[C@H](C)[C@@H](CN(C)Cc1ccncc1)O2	5.7	24.4
CN(C)CC(=O)N[C@@H]1CC[C@H](CCn2cc(C3CCCCC3)nn2)O[C@H]1CO	-6.3	5.1

Three of these compounds, set out differently.
Values run as follows: Vaccinia stage	Vaccinia stage Venus
CO[C@@H]1CN(C)C(=O)c2ccc(NC(=O)C3CCC3)cc2OC[C@@H](C)N(S(=O)(=O)c2ccc(Cl)cc2)C[C@H]1C
→ -33.3	-30.2
CN1C(=O)c2cc(NC(=O)C3CCCC3)ccc2OC[C@H]2O[C@@H](CC(=O)NCc3ccccc3F)CC[C@@H]21
→ 24.9	5.4
CCCNC(=O)N1CC2(C1)CN(C(=O)c1ccncc1)[C@@H](CO)c1[nH]c3cc(OC)ccc3c12
→ 8.1	-2.5

Screening results (PubChem)
